# D2 ag – activates the human D2 dopamine receptor; P14416; DiscoveRx PathHunter D2 beta-arrestin, luminescence, 90 min; 100% = 57 uM dopamine signal; activation, % (test concentration not listed); actives 0.084% (n = 360,000); in the data active = activation above about 40%; inconclusive = about 15% to 40%; inactive = below about 15%; also: compound concentration not given in the record; the text of the record calls up to 30% inactive
# Target sequence (P14416 whole entry, looked up): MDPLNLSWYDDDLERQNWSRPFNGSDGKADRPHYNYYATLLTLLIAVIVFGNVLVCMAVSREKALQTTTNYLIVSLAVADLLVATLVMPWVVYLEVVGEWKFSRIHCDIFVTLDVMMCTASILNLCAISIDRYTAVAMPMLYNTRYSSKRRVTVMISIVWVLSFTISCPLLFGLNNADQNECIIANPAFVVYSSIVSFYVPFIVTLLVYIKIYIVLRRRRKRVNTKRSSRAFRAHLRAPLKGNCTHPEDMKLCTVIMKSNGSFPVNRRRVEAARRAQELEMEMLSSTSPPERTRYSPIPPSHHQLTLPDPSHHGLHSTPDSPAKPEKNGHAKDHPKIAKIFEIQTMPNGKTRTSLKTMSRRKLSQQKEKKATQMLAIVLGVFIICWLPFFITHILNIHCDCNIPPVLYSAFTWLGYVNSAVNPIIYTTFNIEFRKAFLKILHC
#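 Agonist mode: compounds alone added to overnight-plated D2 PathHunter cells for 90 min at 37 C, with 57 uM final dopamine (EC100) defining full response. Beta-arrestin recruitment detected by chemiluminescent reagent, read after 1 h at ambient temperature.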
# Six1-Eya2 blk – Six1/Eya2 interaction inhibition; Q15475+O00167; AlphaScreen GST-Six1/His-Eya2 binding, biochemical; stronger effect = lower value; control for the full effect not named in the record; activity change, % (test concentration not listed); actives 0.56% (n = 360,000); in the data active = activity change below about -65%; inconclusive = about -30% to -65%; inactive = above about -30%; also: % is scaled to controls: 0 for no effect and ±100 for the full control effect; compound concentration not given in the record
#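 Homogeneous AlphaScreen proximity assay pairing GST-Six1 with His-tagged Eya2 (added as 5X mix: 250 nM and 500 nM) in 50 mM Tris pH 8.0, 300 mM NaCl, 1 mM TCEP. Glutathione donor and nickel acceptor beads; 1 h, 37 °C, dark.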
# gsp agonist – activates gsp, the McCune-Albright syndrome mutation | gsp mutant cells, cAMP HTRF, 30 min; control for the full effect not named in the record | Potency, µM (series often up to 76.9 µM), inactives show top-dose activation (cAMP increase), actives largely listed as activators | actives 0.13% (n = 340,000) | AID 624287; active = well fitted activation curve with a large enough effect; inconclusive = small, poorly fitted or top-dose-only effect, or another doubt; inactive = no such curve, though single readings can be large or run the other way; cell line not stated here;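 also: phosphodiesterase inhibitor Ro 20-1724 added with compounds to block cAMP breakdown; potency is read from the fitted curve at half-maximal effect; nearly all actives have a fitted effect of over 60% in size; about a fifth of the inactives were tested at one dose only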
#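 Cells stably selected in G418 were plated at 2000/well, grown 16-24 hr, then given compounds in DMSO with the PDE inhibitor […] (300 uM solution added) for 30 min at 37C; cAMP was read by HTRF.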
# gsp antag – antagonizes gsp, the McCune-Albright syndrome mutation; gsp-mutant cells, cAMP HTRF, 30 min; control for the full effect not named in the record; Potency, µM (doses to about 76.9 µM), without a hit: at the top dose activity change, negative = inhibition, hits mostly inhibitors; actives 0.4% (n = 340,000); AID 624288; active = falling curve of any shape with a large fitted effect; inconclusive = falling curve, mostly with a smaller effect; inactive = flat or rising curve; cell line not stated here;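 also: intracellular cAMP measured with PDE inhibitor Ro 20-1724 present during compound exposure; potency is read from the fitted curve at half-maximal effect; % is scaled to controls: 0 for no effect and ±100 for the full control effect; nearly all actives have a fitted effect of over 65% in size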
#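 G418-selected cells were plated in DMEM/10% FBS for 16-24 h at 37C, then treated with compounds plus the PDE inhibitor […] (300 uM solution added) for 30 min at 37C. Intracellular cAMP was measured by HTRF after 30 min lysis at room temperature.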
# CtBP-E1A inh – CtBP/E1A binding inhibition; AlphaScreen GST-E1A/His-CtBP binding, 1536-well; stronger effect = lower value; control for the full effect not named in the record; activity change, % (no concentration beside the values); actives 0.49% (n = 340,000); AID 651724; in the data active means activity change below about -65%; inconclusive means about -30% to -65%; inactive means above about -30%; also: % is scaled to controls: 0 for no effect and ±100 for the full control effect; compound concentration not given in the record
#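 Protein mix (5X: 125 nM each GST-E1A, His-CtBP) was incubated with pinned compound 2 h at 37 deg C in dark, in 50 mM Tris pH 8.0 buffer with 300 mM NaCl. Glutathione donor and nickel acceptor beads followed; AlphaScreen signal read after 1 h.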
# D2 potentiator – human D2 receptor positive allosteric modulation; DiscoveRx D2 beta-arrestin cells, luminescence, 90 min; 100% = 57 uM dopamine signal; potentiation, % (no concentration beside the values); actives 0.23% (n = 360,000); P14416; AID 624464; active = potentiation of 50% or more; inconclusive = 30% to 50%; inactive = 30% or less;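 also: compound concentration not given in the record; tested on top of an EC20 dose of dopamine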
#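 PathHunter beta-arrestin assay in DiscoveRx D2 cells. Compounds were added with an EC20 of dopamine (50 nM final) for 90 min at 37 deg C. Luminescence was read 1 h after detection reagent, with 57 uM dopamine as the EC100 control.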
# * = called active by the depositor; u = inconclusive; x = not tested or not shown; [ ] = dose if it differs, or a comment. Not a hit list, and some 1.4% of all compounds hit somewhere here.
SMILES,D2 ag,Six1-Eya2 blk,gsp agonist,gsp antag,CtBP-E1A inh,D2 potentiator
CCCS(=O)(=O)NC(=O)C1(C)CCN(C(=O)c2ccccc2F)C1 (stereo not drawn),-4.7,6.9,x,x,6.6,-2.3
CCCCCCCC(=O)Nc1cc(C(=O)NCc2ccc(C)cc2)ccc1N1CCC2(CC1)CC(c1cccc(Br)c1)=NO2,0.8,7.5,x,-0.5%,2.0,0.8
COc1cccc(C(=O)Nc2cc(C)c3c(=O)oc4ccccc4c3n2)c1,-1.7,-5.9,-11.7%,-4.8%,-0.5,-3.4
O=C(Cn1ncc2c([nH]c3ccccc32)c1=O)Nc1cccnc1,0.1,3.0,25.8%,-4.5%,x,-8.4
C[C@H](CO)N1C[C@H](C)[C@H](CN(C)C(=O)NC2CCCCC2)Oc2cc(-c3cccnc3)ccc2S1(=O)=O,-1.4,-1.1,u,x,0.4,-1.8
Nc1ccn([C@@H]2O[C@H](C(=O)Nc3ccc(Oc4ccccc4)nc3)[C@@H](O)[C@H]2O)c(=O)n1,-0.8,-0.6,x,x,6.2,-2.1
COc1cccc(-c2nc(-c3ccc4c(c3)NC(=O)CO4)cs2)c1,0.1,-13.8,-15.7%[15.4 µM],5.4%,-2.9,-6.1
CCN(C(=O)COC(=O)c1c(-c2ccccc2)noc1C)c1c(N)n(Cc2ccccc2)c(=O)[nH]c1=O,0.5,-2.6,1.4%[15.4 µM],4.4%,-3.5,-7.7
COc1ccc(Oc2ccc(C(F)(F)F)cc2N)cc1,-3.1,-0.7,-19.1%,0.3%,-0.9,-7.4
CCn1cc(C(=O)N[C@@H](C)C(=O)NCCO)c(=O)c2cc3c(cc21)OCO3,3.0,8.9,2.6%,6.4%,5.7,7.6
Cc1ccc2c(c1)N(C(=O)CCC(=O)NCc1cccc(F)c1)CCO2,1.6,-0.4,7.1%,1.7%,3.0,-11.1
CCOc1ccc(N(CC(=O)NCCSCc2ccc(C)cc2)S(C)(=O)=O)cc1,1.1,-11.4,-1.8%[15.4 µM],-2.1%,-2.5,-3.6
Cc1ccc(NC(=O)c2ccc(Br)o2)cc1S(=O)(=O)N(C)C,1.0,6.4,-38.1%[inhibitor],-11.1%,-2.3,0.1
c1ccc(CN(Cc2ccccc2)c2c3c(nc4ncnn24)CCC3)cc1,-2.2,-2.2,15.0%,-7.5%,-14.4,-6.5
C=CCSC1=C(C#N)C(c2cc(Br)c(O)c(OC)c2)CC(=O)N1 (stereo not drawn),-1.9,-1.8,13.1%,-28.6%,1.8,-3.7
COc1cc(C(=O)OCC(=O)NC(=O)NCc2ccccc2)ccc1OC(F)F,-7.9,-0.7,-10.0%,5.3%,5.1,9.5
Cc1ccccc1OCc1nc2ccccc2[nH]1,-2.0,-1.7,2.2%[15.4 µM],u,2.1,-4.7
CCCS(=O)(=O)NCc1cn2c(C)csc2n1,7.9,-6.6,-9.0%,13.4%,0.8,0.1
CCC(=O)Oc1ccc2c(C)cc(=O)oc2c1C(=O)c1ccccc1,-1.6,-3.3,-1.1%[15.4 µM],-4.0%,6.9,-5.0
CC(C)C(=O)Nc1ccc(C(=O)NNC(=S)NC(=O)c2cccs2)cc1,-5.0,-13.0,19.7%[15.4 µM],-10.6%,-14.6,1.0
Cc1ccc(NC(=O)CN2CCCC2c2cccn2C)cc1C (stereo not drawn),-2.0,-14.4,u,-2.2%,-20.8,-12.2
Cc1ccsc1C(=O)N1CCCC(C)(C(=O)NS(=O)(=O)C2CC2)C1 (stereo not drawn),-3.9,2.3,x,x,2.5,1.7
COc1ccc(OCCSc2nc3nc(C)cc(C)n3n2)cc1,-0.5,u,-4.7%,0.2%,-27.3,-8.4
COc1ccc(OC)c(C(O)c2ncc(-c3cccc(C(F)(F)F)c3)[nH]2)c1 (stereo not drawn),-2.3,-10.8,x,x,-10.5,-2.6
Cc1ccc(OCC(=O)Nc2c(C)nn(-c3ccccc3)c2C)c(Br)c1,-2.8,-5.4,-6.8%,-29.7%,-17.5,6.8
O=C(Cn1nnc(-c2ccc(F)cc2)n1)Nc1cccc(S(=O)(=O)N2CCCC2)c1,2.2,-4.9,16.6%,-13.7%,-2.6,-1.9
O=S(=O)(O)c1cc(O)c2ccc(Nc3ccccc3)cc2c1,3.9,u,-54.5%[inhibitor],-3.6%,4.7,8.8
COc1ccccc1Cc1c(-c2cccc(Cl)c2)nc2ccc(Br)cn12,-5.6,6.7,x,x,3.8,-7.7
C[C@H](O)[C@@H]1C(=O)N2CCc3ccc(N4CCN(C)CC4)cc3[C@@H]2C[C@@H]1N(C)C(=O)c1ccco1,-10.4,1.4,-30.7%[inhibitor],x,0.6,-1.0
CSc1ncccc1C(=O)OCC(=O)Nc1nc(C)c(Cl)cc1Cl,-1.9,11.3,0.6%,-14.2%,-9.8,0.5
O=C(Nc1ccc(N2CCN(C(=O)c3cccs3)CC2)c(Cl)c1)c1cccnc1,0.3,10.7,16.6%,u,0.0,6.6
CC(C)C(O)C1CCN(Cc2nc(-c3cccs3)no2)CC1 (stereo not drawn),-0.9,21.8,-13.4%[15.4 µM],6.3%,0.7,-4.7
O=C(O)CCC1(CCC(=O)O)c2ccccc2-c2ccccc21,8.5,6.3,-25.8%,5.6%,5.9,-1.4
CC(C1CC2CCC1C2)n1c(COc2ccccc2F)nnc1SCC(N)=O (stereo not drawn),-0.9,-5.5,-7.2%,-6.4%,-0.1,-11.7
Cc1ccnc(NS(=O)(=O)c2ccc(NC(=O)C3CCCNC3=O)cc2)n1 (stereo not drawn),-3.6,0.2,18.9%,-5.5%,6.7,4.1
Cc1ccccc1S(=O)(=O)NCc1cccnc1,-3.4,-1.1,-3.2%,16.0%,8.0,-21.2
O=C(c1ccccc1)c1nnc(-c2ccncc2)o1,-3.4,4.3,u,4.2%,-1.7,-9.9
Cc1cccc(-c2noc(C(C)NC(=O)c3ccco3)n2)c1 (stereo not drawn),-4.9,3.7,0.2%[15.4 µM],-4.7%,0.1,-4.3
CCOCC(=O)Nc1nnc(Cc2ccc(OC)cc2)s1,-4.9,3.2,u,4.8%,2.1,-16.3
CCCCC(=O)Nc1cc(C)c(NC(=O)c2ccco2)cn1,0.4,-1.6,-29.1%,3.0%,x,9.3
CCCCCCC(=O)N1C/C=C\C(c2ccc(OC)cc2)N(Cc2ccc(F)cc2)C(=O)[C@H]1Cc1ccccc1 (stereo partly drawn),-5.5,-1.1,x,-10.8%,-1.8,-10.1
CCN1C(=O)N(c2cccc3ccccc23)C(C)=CC1(C)C,-0.5,-3.9,-41.2%[inhibitor],-15.4%,0.9,-2.8
Cc1ccc(NC(=O)CSc2nncn2N)cc1C,0.3,-4.5,-32.2%,3.9%,x,11.6
N#Cc1ccc(C(=O)Nc2ccc([N+](=O)[O-])cc2)c(F)c1,-1.1,0.4,-4.2%[15.4 µM],0.4%,-16.8,-8.3
Cc1ccc(C(c2nnnn2CCc2ccccc2)N2CCC(C)CC2)cc1 (stereo not drawn),-1.4,10.6,-3.9%,-10.2%,-2.0,-28.9

# Entries listed so far containing a cyano group (two):
SMILES,D2 ag,Six1-Eya2 blk,gsp agonist,gsp antag,CtBP-E1A inh,D2 potentiator
C=CCSC1=C(C#N)C(c2cc(Br)c(O)c(OC)c2)CC(=O)N1 (stereo not drawn),-1.9,-1.8,13.1%,-28.6%,1.8,-3.7
N#Cc1ccc(C(=O)Nc2ccc([N+](=O)[O-])cc2)c(F)c1,-1.1,0.4,-4.2%[15.4 µM],0.4%,-16.8,-8.3

# Continuation:
SMILES,D2 ag,Six1-Eya2 blk,gsp agonist,gsp antag,CtBP-E1A inh,D2 potentiator
Cc1ccnc(NC(=O)c2ccccc2NC(=O)c2ccc(Cl)cc2Cl)c1,-3.1,-2.6,u,3.5%,x,4.3
CS(=O)(=O)N1CCc2cc(S(=O)(=O)Nc3ccc4oc5c(c4c3)CCCC5)ccc21,2.5,-11.0,-27.1%,-5.5%,-20.0,26.9
O=C(CCc1ccc(S(=O)(=O)N2CCOCC2)cc1)N1CCN(Cc2ccc3c(c2)OCO3)CC1,0.1,-1.5,22.5%,-28.3%,-7.3,-6.0
O=C(O)CNC(=O)c1nc(-c2ccccc2)n(-c2ccccc2)n1,-10.6,-6.7,6.5%[15.4 µM],12.8%,-8.6,-1.7
Cc1cc(NC(=O)CSc2ccc(Cl)cc2)no1,0.7,-1.4,3.3%,1.8%,2.5,12.2
O=C(NCCc1cn[nH]c1)C1CCC(=O)N(CCc2cccc(F)c2)C1 (stereo not drawn),0.1,3.4,u,2.2%,-4.5,-9.3
Cc1c(CN(C)C(=O)c2ccc(Br)o2)cnn1C,-1.3,-2.0,2.9%,-3.3%,-0.4,13.0
CCCCn1nc(C(=O)Nc2ccc(S(=O)(=O)Nc3ncccn3)cc2)c2ccccc2c1=O,-3.0,2.1,14.2%[15.4 µM],u,2.7,-5.2
CCC(=O)Nc1ccc(Nc2ccccc2)cc1,-1.3,3.2,2.8%,6.8%,0.9,4.5
Cc1c(O)cc2n(c1=O)-c1ccccc1C2(C)C,-7.1,-5.9,-28.1%,-13.5%,2.3,-42.1
CCOC(=O)N1CCN(C(=O)Nc2ccccc2Cl)CC1,-0.2,-2.2,-58.1%[inhibitor],2.0%,13.4,-3.0
Cc1ccccc1CSCC(Nc1ccc(C(=O)O)cc1[N+](=O)[O-])C(=O)O (stereo not drawn),-5.3,0.3,-27.9%,-13.3%,0.0,-36.5
CC1(C(=O)NCCN2CCOCC2)C=CC2(CCCCC2)N1C(=O)c1ccccc1 (stereo not drawn),-0.4,-2.8,23.2%,2.6%,0.5,-16.2
C/C(=N\NS(=O)(=O)c1ccc(Cl)c([N+](=O)[O-])c1)c1cc2ccccc2o1,3.5,-6.2,5.1%,-31.8%,-0.9,23.2
CCOC(=O)C(Cc1ccccc1)C(=O)Nc1ccccc1C (stereo not drawn),-4.0,7.1,23.8%,8.5%,9.4,0.9
C/C(=N\NC(=O)c1ccc2c(c1)OCO2)c1ccc(NC(=O)CCCC(=O)O)cc1,-4.0,-4.4,-39.6%[inhibitor],1.9%,-15.2,-4.9
C/C(=C\CCC1(C)C2CC3C(C2)C31C)C(=O)O (stereo not drawn),-1.0,3.2,x,4.8%,4.0,-0.7
COc1ccc(C(CNC(=O)CNC(=O)c2ccccc2Cl)N2CCCC2)cc1 (stereo not drawn),-2.4,-2.8,15.6%[15.4 µM],4.5%,-2.8,2.5
C1=CCC(CN2CCN(C3CCCCCC3)CC2)CC1 (stereo not drawn),-0.6,-5.3,-4.3%[15.4 µM],4.8%,-8.4,-16.4
CCOCCCNC(=O)C1CCN(S(=O)(=O)c2ccc3nc4c(c(C(=O)O)c3c2)CCCCC4)CC1,-3.8,0.0,u,8.7%,-7.0,-3.3
CC1CC(C)CN(Cc2nc(N)nc(Nc3ccc4ccccc4c3)n2)C1 (stereo not drawn),-2.5,-15.5,-9.8%,6.7%,-7.5,-9.7
